Screening data from PubChem.
StopGo reporter – High Throughput Screening for Foot and Mouth Disease Virus Antivirals; human cells with a luciferase reporter of 2A StopGo recoding; control for the full effect not named in the record; Potency, µM (doses to about 57.9 µM), inactives show at the highest dose signal change, negative = less light; 1.2% of 410,000 active; active = well fitted falling curve with a large enough effect; inconclusive = small, poorly fitted or top-dose-only effect; inactive = no such curve, though single readings can be large or run the other way; tested in HEK293T cells; note: % is set by controls: 0 for no effect and ±100 for the full control effect; nearly all actives have a fitted effect of over 45% in size; luciferase light after 4 h
Lassa entry inh – qHTS for Inhibitors of binding or entry into cells for Lassa Virus | Lassa virus pseudotype entry inhibition, cell reporter; control for the full effect not named in the record | Potency, µM (highest dose often 37.9 µM), for inactives: top-dose activity change, negative = inhibition, hits mostly inhibitors | 1.2% of 300,000 active | AID 540256, 2011; active means well fitted inhibition curve with a large enough effect; inconclusive means small, poorly fitted or top-dose-only effect, or effect the other way; inactive means flat fitted curve, though single readings scatter; tested in HEK293 cells; note: % is set by controls: 0 for no effect and ±100 for the full control effect; nearly all actives have a fitted effect of over 50% in size; luciferase read-out
Marburg entry inh – qHTS for inhibitors of binding or entry into cells for Marburg Virus. Marburg virus pseudotyped entry inhibition, cell reporter; control for the full effect not named in the record; about a third of the inactives were read at about 46 µM. Potency, µM (highest dose often 37.8 µM), for inactives: at the highest dose activity change, negative = inhibition, actives largely listed as inhibitors. 1.8% of 300,000 active. AID 540276, 2011; active = well fitted inhibition curve with a large enough effect; inconclusive = small, poorly fitted or top-dose-only effect, or effect the other way; inactive = flat fitted curve, though single readings scatter; tested in HEK293 cells; about a fifth of its hits are not listed in these tables; note: % is set by controls: 0 for no effect and ±100 for the full control effect; luciferase read-out
Cruzain inh noDet – qHTS Assay for Promiscuous and Specific Inhibitors of Cruzain (without detergent); Cruzipain (Trypanosoma cruzi), P25779; purified cruzain, Z-FR-AMC fluorescence, no detergent; Potency, µM, for inactives: max response, negative = inhibition, usual class: inhibitors; 2.3% of 200,000 active; active = well fitted curve in the direction sought with a large enough effect; inconclusive = small, poorly fitted or top-dose-only effect, or another doubt; inactive = no such curve, though single readings can be large; an effect the other way counts as inactive or inconclusive;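 note: plate controls were enzyme without inhibitor for no effect and buffer without enzyme for full effect; nearly all actives have a fitted effect of over 40% in size; top concentration of the series not given in the record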
Target sequence (P25779 123-467 limits assumed): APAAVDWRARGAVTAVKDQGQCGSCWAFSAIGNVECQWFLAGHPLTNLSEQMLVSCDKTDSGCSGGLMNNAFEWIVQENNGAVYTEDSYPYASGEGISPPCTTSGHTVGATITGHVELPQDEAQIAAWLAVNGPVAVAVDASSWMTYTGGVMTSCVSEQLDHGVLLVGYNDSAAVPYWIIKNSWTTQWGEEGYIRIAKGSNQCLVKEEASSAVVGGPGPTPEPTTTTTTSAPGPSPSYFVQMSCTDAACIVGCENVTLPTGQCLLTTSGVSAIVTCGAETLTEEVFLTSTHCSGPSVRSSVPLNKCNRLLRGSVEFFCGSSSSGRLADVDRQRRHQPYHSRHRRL
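Detergent-free condition (0.00005% Triton X-100) in acetate buffer pH 5.5 with DTT. 1.5 nM enzyme and compound were pre-mixed 15 min, then 2 uM Z-FR-AMC substrate added; reaction progress from fluorescence change between first and third reads (60 s).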
RE007 growth inh – qHTS Assay for Inhibitors of the HIV-1 protein Vpr. S. pombe RE007 Vpr strain, BacTiter-Glo ATP luminescence, 24 h; control for the full effect not named in the record. Potency, µM (series often up to 92.2 µM), for the others: top-dose activity change, negative = less growth. 0.21% of 360,000 active; active = well fitted falling curve with a large enough effect; inconclusive = small, poorly fitted or top-dose-only effect; inactive = no such curve, though single readings can be large or run the other way;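 note: % is set by controls: 0 for no effect and ±100 for the full control effect; nearly all actives have a fitted effect of over 50% in size; the assay follows cell death caused by Vpr and the record does not say whether a fall means rescue or toxicity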
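Fission yeast RE007 carrying one integrated HIV-1 vpr copy, seeded at OD 0.01 in PMG+AL medium with 23 nL pinned compound. Grown 24 h at 30 degrees; viability read by BacTiter-Glo luminescence after 5 min.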
Cruzain inh Det – qHTS Assay for Promiscuous and Specific Inhibitors of Cruzain (with detergent). Cruzipain (Trypanosoma cruzi), P25779. purified cruzain, Z-FR-AMC fluorescence, 0.01% Triton. Potency, µM, inactives show max response, negative = inhibition, usual class: inhibitors. 0.43% of 200,000 active. AID 1478, 2009; active = well fitted curve in the direction sought with a large enough effect; inconclusive = small, poorly fitted or top-dose-only effect, or another doubt; inactive = no such curve, though single readings can be large; an effect the other way counts as inactive or inconclusive;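 note: plate controls were neutral wells for no effect and buffer without enzyme for full effect; nearly all actives have a fitted effect of over 40% in size; top concentration of the series not given in the record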
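Cysteine protease activity tested under reducing, mildly acidic conditions (100 mM sodium acetate pH 5.5, 5 mM DTT) plus 0.01% Triton X-100. Cruzain 1.5 nM; substrate Z-FR-AMC 2 uM; 15 min compound preincubation at room temperature.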
NS1 function inh – qHTS Assay for Inhibitors of Influenza NS1 Protein Function. S. cerevisiae slowed by influenza A NS1, growth recovery by OD600. Potency, µM (doses to about 46.1 µM), for inactives: top-dose activity, positive = more growth. 0.4% of 270,000 active; note: actives are rising curves; nearly all actives have a fitted effect of over 50% in size
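S. cerevisiae expressing influenza A NS1, grown in glucose, washed, then diluted 1:100 into pH 6.0 -URA galactose medium with 23 nl compound. Growth recovery read as OD600; NS1-free strain serves as control.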
SARS PLP yeast – qHTS of Yeast-based Assay for SARS-CoV PLP | S. cerevisiae expressing SARS-CoV PLpro, growth rescue; control for the full effect not named in the record | Potency, µM (highest dose often 32.9 µM), for inactives: at the highest dose activity, positive = growth rescue | 0.19% of 330,000 active; note: 0% is about no effect; nearly all actives have a fitted effect of over 55% in size; growth read by luminescence after 48 h
Active calls of the source: *; u = inconclusive; x = no result given; & = joins results of further samples; [ ] = another dose, or the depositor's remark. Unless noted, calls come from the whole dose curve; as a rule, active means well fitted rising curve with a large enough effect; inconclusive means small, poorly fitted or top-dose-only effect; inactive means no such curve, though single readings can be large or run the other way. Potency is the fitted concentration of half-maximal effect. An unsorted share of the library; about 4.7% have a hit in one of these screens.

The line under a structure holds: StopGo reporter, Lassa entry inh, Marburg entry inh, Cruzain inh noDet, RE007 growth inh, Cruzain inh Det, NS1 function inh, SARS PLP yeast
CCS(=O)(=O)Nc1ccc(C2=NN(C(=O)c3ccco3)C(c3cccs3)C2)cc1 (configuration not stated)
    u, u, u, x, 1%, x, 24%, 5%
COc1ccccc1NC(=O)CSc1nc2sc3c(c2c(=O)n1-c1ccccc1)CCN(C)C3
    11%, x, x, x, -1%, x, 8%, 14%
CCc1cccc(NC(=O)CCS(=O)(=O)c2cc(Br)cc3c2N(C(C)=O)CC3)c1
    -8%, -4%[46.1 µM], 16%[46.1 µM], u, x, -3.3%, x, x
CCOc1ccc(C2/C(=C(\O)c3ccc4c(c3)OCCO4)C(=O)C(=O)N2CCCN2CCOCC2)cc1OC (configuration not stated)
    5%, -25%[46.1 µM], 2%[46.1 µM], x, 8%, x, 7%, -4%
CCCN(C(=O)c1cc(S(=O)(=O)N2CCc3ccccc32)cn1C)c1ccc(OCC)cc1
    -8%, 17%[46.1 µM], x, 8%, x, -0.5%, x, x
COc1ccc(OCc2cc(C(=O)NC(C)Cc3cccnc3)no2)c(Cl)c1 (configuration not stated)
    -20%, x, x, x, -18%, x, -17%, 0%
COC(=O)c1cn(-c2ccc(Cl)cc2)c(=O)c2ccccc12
    -25%, -9%, -13%, -7%, 0%, -2.0%, -18%, -18%
CN(C)c1ccc(/C=C(\C#N)c2nc3ccccc3c(=O)[nH]2)cc1
    0%, 9%[46.1 µM], x, 8%, x, 0.4%, x, x
CCc1cc2c(=O)c(-c3nc4ccccc4[nH]3)coc2cc1OC(=O)N1CCOCC1
    -2%, 5%, 15%&15%&15%, u, 1%, -14%, -8%, -16%
CN(c1ccc(O)cc1)c1nc(-c2cccnc2)cs1
    70%[activator], x, x, x, 2%, x, -47%, -13%
O=C(CC12CC3CC(CC(C3)C1)C2)N1CCOCC1
    -7%, 18%, 0%[46.1 µM], -3%, 18%, 4.4%, -3%, -4%
COc1cccc(CN2CCNC(=O)C2CC(=O)NCCn2nc(C)cc2C)c1OC (configuration not stated)
    40%[activator], -7%, 2%[46.1 µM], x, 0%, x, 5%, -1%
O=C(O)Cn1nc(C(F)(F)F)c2c1CCCC2
    6%, 0%, 7%[46.1 µM], x, 16%, x, x, 0%
NC(=O)CN1C2CCC1CC(NC(=O)C1CC1)C2 (configuration not stated)
    -4%, 5%, u, 4%, -10%, -0.2%, 4%, 14%
CCCCc1ccc(NC(=O)Nc2cccnc2)cc1
    25%, x, x, x, 16%, x, -78%, -5%
Fc1ccc(OCc2nn3cnnc3s2)cc1
    13%, -9%, 26%, 0%, 11%, 1.7%, 5%, 2%
COc1cc2c(cc1OC)CN(C(=O)CNC(=O)c1ccc(OC(F)F)cc1)CC2
    u, -1%, -2%, x, 5%, x, -10%, 1%
CCN(CC)CCCN1C=C2C(=O)C(C)(OC(=O)C3CCCC3)C(=O)C(c3ccccc3)=C2C=C1CCCC(=O)OC (configuration not stated)
    -20%, x, x, x, -16%, x, 12%, 0%
COC(=O)CN1C(=O)CSc2ccc(S(=O)(=O)N3CCOCC3)cc21
    -5%, 1%[46.1 µM], x, 12%, x, -2.4%, x, x
CCn1c(C(Cc2ccccc2)NC(=O)COC)nc2ccccc21 (configuration not stated)
    -15%, x, x, 0%, -5%, -0.5%, -4%, 2%
O=c1oc2ccccc2cc1-c1cn2cc(Cc3ccc(Br)cc3)sc2n1
    51%[activator], -1%[46.1 µM], u, 3%, x, -2.1%, x, x
CCN(c1ccc(C)cc1C)S(=O)(=O)c1nnc(NC(=O)c2ccccc2OC)s1
    u, 11%[46.1 µM], x, 10%, x, -1.1%, x, x
CC(C)(C)OC(=O)N1CCOCCOCCNCCOCCOCC1
    1%, -8%, 0%, 15%, -16%, -3.6%, 20%, 15%
CCOc1ccc(C2=Nc3ccccc3C(c3ccc(N4CCOCC4)cc3)=NN2)cc1
    20%, u, u, -19%, -2%, 1.9%, u, -9%
COc1ccc(NC(=O)Cn2c(=O)n(CCc3ccccc3)c(=O)c3c4c(sc32)CCCC4)cc1
    -13%, -15%[46.1 µM], 7%[46.1 µM], -2%, x, -1.6%, x, x
COc1ccc(-c2cc(C(=O)Oc3cccc(C)c3)c3cc(C)ccc3n2)cc1
    -15%, 0%[46.1 µM], x, 1%, x, -2.6%, x, x
Cc1cc(C)cc(C(=O)Nc2ccncc2)c1
    -14%, x, x, x, -23%, x, -38%, -4%
O=[N+]([O-])c1cc(/C=N/Nc2nc3ccccc3[nH]2)c(O)cc1O
    6%, 10µM*, 8.9µM*, u, -24%, -1.8%, u, 16µM*
Cc1ccc(Sc2ncccc2N)cc1
    20%, 1%, 7%[46.1 µM], x, u, x, x, x
CCOc1ccc(/C=C(/C#N)c2nnc(N3CCOCC3)n2-c2ccccc2)cc1OC
    -17%, 0%[46.1 µM], -3%[46.1 µM], x, 1%, x, x, x

Single records, as listed above.
`COC(=O)CN1C(=O)CSc2ccc(S(=O)(=O)N3CCOCC3)cc21` across the screens: StopGo reporter = -5%; Lassa entry inh = 1%[46.1 µM]; Marburg entry inh = x; Cruzain inh noDet = 12%; RE007 growth inh = x; Cruzain inh Det = -2.4%; NS1 function inh = x; SARS PLP yeast = x
`O=c1oc2ccccc2cc1-c1cn2cc(Cc3ccc(Br)cc3)sc2n1` across the screens: StopGo reporter = 51%[activator]; Lassa entry inh = -1%[46.1 µM]; Marburg entry inh = u; Cruzain inh noDet = 3%; RE007 growth inh = x; Cruzain inh Det = -2.1%; NS1 function inh = x; SARS PLP yeast = x

The results go on.
The line under a structure holds: StopGo reporter, Lassa entry inh, Marburg entry inh, Cruzain inh noDet, RE007 growth inh, Cruzain inh Det, NS1 function inh, SARS PLP yeast
COC(=O)C1CCCN1S(=O)(=O)c1ccc([N+](=O)[O-])cc1 (configuration not stated)
    -9%, x, x, x, 15%, x, 1%, 1%
Cn1c(CN2CCCCC2)nc2cc(NS(=O)(=O)c3ccc(Cl)cc3)ccc21
    -16%, -23%, u, -2%, -9%, 4.9%, 6%, 2%
Cc1cccc(NC(=O)CSc2nnc(CSc3nc(C)cc(C)n3)n2Cc2ccco2)c1
    18%, -5%, 1%&1%, u, -5%, 0.4%, -2%, 4%
Cc1ccc(-c2csc(=S)n2CC(=O)OCC(=O)NCc2ccco2)cc1
    u, 5%, -20%, -7%, -3%, -0.6%, -7%, -2%
Cc1ccc(CCNC(=O)CNS(=O)(=O)c2ccc3nc(C)sc3c2)cc1
    22%, x, x, x, -2%, x, 4%, 3%
Cc1onc(-c2ccccc2Cl)c1C(=O)N1CCN(c2ccc(F)cc2)CC1
    -25%, -20%[46.1 µM], 0%[46.1 µM], x, -14%, x, 8%, -7%
CCN(CC)CCCN1C(=O)C(=O)/C(=C(/O)c2ccc(OC)cc2)C1c1ccco1 (configuration not stated)
    18%, -3%, -9%[46.1 µM], x, 5%, x, x, x
CC(=O)Cc1nsc(NC(=O)c2cn(-c3ccccc3)nc2-c2ccc(Br)cc2)n1
    13%, 0%, 6%, 4%, -11%[3.69 µM], -5.9%, 3%, 4%
Nc1nc(SCc2cccnc2)c2ncn(C3OC(CO)C(O)C3O)c2n1 (configuration not stated)
    -8%, 2%[46.1 µM], 3%[46.1 µM], x, -9%, x, x, x
CCCC(C)NC(=O)c1cc(C(=O)OC)cc([N+](=O)[O-])c1 (configuration not stated)
    -20%, -2%, -28%, 9%, 1%, -0.9%, 16%, -9%
CC(OC(=O)c1ccccc1Br)C(=O)Nc1nc(-c2cccc([N+](=O)[O-])c2)cs1 (configuration not stated)
    u, 28%, -18%, u, 5%, 0.1%, 3%, 15%
CCN(Cc1ccccc1)C(=O)Nc1ccc2c(c1)N(C)C(=O)c1ccccc1S2
    0%, u, u, 17%, x, -8.1%, x, x
CSc1c(C#N)sc(=S)n1-c1ccc(C)cc1
    -29%, -19%, 2%[46.1 µM], x, 12%, x, 3%, 0%
COc1ccc(CCNc2ncnc3[nH]ncc23)cc1OC
    18µM*, -26%, u, -11%, 2%, -0.3%, 8%, -9%
O=C(COC(=O)Cc1cccc(C(F)(F)F)c1)Nc1ccc2[nH]c(=O)[nH]c2c1
    -16%, -1%, 0%, x, 24%, x, x, -6%
c1csc(C(c2nnnn2C2CCCC2)N2CCOCC2)c1 (configuration not stated)
    -9%, -11%, -1%, -3%, 0%, 2.1%, 1%, 6%
COC(=O)CSc1ncc2c(n1)-c1ccccc1N(Cc1ccc(Cl)cc1)S2(=O)=O
    -6%, -1%[46.1 µM], x, -11%, x, 1.9%, x, x
COc1ccc(-n2c(SCC#N)nnc2-c2cccnc2)cc1
    -1%, 6%, -2%, 3%, 10%, 3.9%, -6%, 0%
CCn1cc(S(=O)(=O)c2ccc(Cl)cc2)c(=O)c2cc(OC)ccc21
    4%, x, x, x, 4%, x, 4%, 2%
CN(CCNC(=O)C1CCC(=O)N(Cc2ccc(Cl)cc2)C1)CCc1ccccc1 (configuration not stated)
    -12%, 20%, u, x, 11%, x, 6%, 3%
Cc1ccc2c(c1)c(=O)c1ccccc1n2CCCC(=O)Nc1ccc(C)c(C)c1
    u, u, x, -23%, x, -5.2%, x, x
O=C(c1cccc(Br)c1)N1CCCC1
    4%, 8%, 26%, 0%, -11%, 6.5%, -3%, -1%
